Bioassay records (PubChem)
Vaccinia inh = blocks a specific stage of Vaccinia orthopoxvirus infection, primary screen, cell-based, single point | Vaccinia-infected cells, mCherry/Venus stage reporter fluorescence; stronger effect = lower value; some inactives read as strong as hits | activity change (mCherry), % (test concentration not listed) | actives 0.01% (n = 89,000);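 active = mCherry past -33% and 40 or more points under the early reporter, replicates agreeing; inconclusive = past -33% without that gap or agreement; tested in A549 cells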;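 note: scaled between vehicle wells and reference inhibitor wells; 23 nL library stock went into each well; one replicate is shown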
Vaccinia inh Venus = further read-out of Vaccinia inh, marked with its call; activity change (Venus), %; measured here: Venus reporter, other viral stage;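 negative = less Venus signal; first of two replicates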
An asterisk follows results filed as active; ? = inconclusive; / = not tested or not shown; & = joins results of further samples.

| compound | Vaccinia inh | Vaccinia inh Venus |
| --- | --- | --- |
| Cc1noc(C)c1NC(=O)Nc1cccc2c1O[C@@H](CN(C)C(=O)Nc1ccc(C(F)(F)F)cc1)[C@H](C)CN([C@@H](C)CO)C2=O | 8 | 7 |
| CNC[C@H]1OCCCC[C@@H](C)Oc2ccc(NC(=O)CCC(F)(F)F)cc2C(=O)N([C@H](C)CO)C[C@H]1C | 7 | 9 |
| CN(C)CC(=O)Nc1ccc2c(c1)[C@H]1C[C@@H](CC(=O)N3CCc4ccccc4C3)O[C@H](CO)[C@H]1O2 | -14 | -10 |
| CO[C@@H]1CN(C)C(=O)c2ccc(NC(C)=O)cc2OC[C@H](C)N(C(=O)Cc2ccccn2)C[C@@H]1C | 16 | 10 |
| CO[C@H](CN(C)S(=O)(=O)c1ccccc1)[C@@H](C)CN(C(=O)Nc1ccccc1F)[C@H](C)CO | 2 | 2 |
| Cc1ccc(-c2ccc3c(c2)O[C@H](CN(C)C(=O)NC(C)C)[C@@H](C)CN([C@@H](C)CO)S3(=O)=O)cc1 | -20 | -16 |
| Cc1noc(C)c1NC(=O)NCC[C@@H]1CC[C@H](NC(=O)c2ccc(F)cc2)[C@@H](CO)O1 | 11 | 14 |
| C[C@H](CO)N1C[C@H](C)[C@H](CN(C)S(=O)(=O)c2cccc(F)c2)Oc2ncc(-c3ccc(F)cc3)cc2C1=O | -31 | -21 |
| COc1cccc(S(=O)(=O)Nc2ccc3c(c2)C(=O)N(C)C[C@@H](OC)[C@@H](C)CN[C@@H](C)CO3)c1 | 8 | 3 |
| C[C@@H]1CN([C@H](C)CO)C(=O)Cc2cc(NC(=O)Cn3cnnn3)ccc2O[C@@H]1CN(C)S(=O)(=O)c1ccc(Cl)cc1 | 25 | 20 |
| COCC(=O)N1C[C@H]2[C@@H](c3ccccc31)[C@H](CO)N2C(=O)c1ccccc1F | 18 | 18 |
| C[C@@H]1CCCCO[C@H](CN(C)CC2CC2)[C@H](C)CN([C@@H](C)CO)C(=O)c2cc(N(C)C)ccc2O1 | 1 | -10 |
| NCC[C@@H]1CC[C@@H](NS(=O)(=O)c2ccc(Cl)cc2)[C@@H](CO)O1 | -3 | 7 |
| COc1ccccc1NC(=O)N1C[C@H]2[C@@H](c3ccccc31)[C@@H](CO)N2C(=O)C1CCCC1 | 9 | -6 |
| CCCNC(=O)N1CC[C@H]2[C@@H]1c1cc(C#Cc3ccccc3)ccc1N(C)[C@H]2CO | -13 | -9 |
| Cc1ccc(S(=O)(=O)N(C)C[C@@H]2Oc3ccc(NS(=O)(=O)c4ccccc4)cc3C(=O)N([C@H](C)CO)C[C@H]2C)cc1 | 12 | 7 |
| Cc1ccc(S(=O)(=O)N(C)C[C@H]2Oc3ccc(NS(=O)(=O)c4c(C)noc4C)cc3C(=O)N([C@H](C)CO)C[C@H]2C)cc1 | 4 | 4 |
| CCCC(=O)Nc1ccc2c(c1)OC[C@H](C)N(CC1CCCC1)C[C@@H](C)[C@@H](OC)CN(C)C2=O | 8 | 8 |
| C[C@H]1CN([C@@H](C)CO)S(=O)(=O)c2ccc(-c3ccncc3)cc2O[C@H]1CN(C)C(=O)Nc1ccc(F)cc1 | 11 | 2 |
| O=C(N[C@@H]1CC[C@@H](CCNS(=O)(=O)c2ccc(F)cc2)O[C@@H]1CO)c1ccccn1 | 4 | -2 |
| COc1cccc(C(=O)Nc2ccc3c(c2)OC[C@H](C)N(CC2CC2)C[C@@H](C)[C@@H](OC)CN(C)C3=O)c1 | -8 | -6 |
| CCCC(=O)Nc1ccc2c(c1)C(=O)N(C)C[C@H](OC)[C@H](C)CN(C(=O)CC1CC1)[C@H](C)CO2 | 4 | -1 |
| COc1cccc(NC(=O)N[C@@H]2C=C[C@H](CC(=O)N3CCN(C)CC3)O[C@@H]2CO)c1 | 4 | 20 |
| C[C@@H]1CCCCO[C@@H](CN(C)S(=O)(=O)c2ccc(F)cc2)[C@H](C)CN([C@@H](C)CO)C(=O)c2cc(NC(=O)Nc3ccc(C(F)(F)F)cc3)ccc2O1 | -3 | 7 |
| COCC(=O)N1[C@@H]2c3ccc(C4=CCCC4)c(=O)n3C[C@H]1[C@H](CO)[C@H]2C(=O)OC | 3 | 1 |

An excerpt from above in order of count of non-hydrogen atoms, ascending:
| compound | Vaccinia inh | Vaccinia inh Venus |
| --- | --- | --- |
| COCC(=O)N1C[C@H]2[C@@H](c3ccccc31)[C@H](CO)N2C(=O)c1ccccc1F | 18 | 18 |
| O=C(N[C@@H]1CC[C@@H](CCNS(=O)(=O)c2ccc(F)cc2)O[C@@H]1CO)c1ccccn1 | 4 | -2 |
| COc1ccccc1NC(=O)N1C[C@H]2[C@@H](c3ccccc31)[C@@H](CO)N2C(=O)C1CCCC1 | 9 | -6 |
| C[C@@H]1CCCCO[C@H](CN(C)CC2CC2)[C@H](C)CN([C@@H](C)CO)C(=O)c2cc(N(C)C)ccc2O1 | 1 | -10 |

More results follow.
| compound | Vaccinia inh | Vaccinia inh Venus |
| --- | --- | --- |
| Cc1ccc(S(=O)(=O)N(C)C[C@@H]2Oc3ccc(NS(C)(=O)=O)cc3C(=O)N([C@@H](C)CO)C[C@H]2C)cc1 | 2 | -4 |
| Cc1ccccc1-c1ccccc1[C@H]1[C@@H](C#N)N(C(=O)c2cccc(F)c2)[C@H]1CO | 7 | 0 |
| O=C(N[C@@H]1CC[C@@H](CCNS(=O)(=O)c2ccc(F)cc2)O[C@H]1CO)C1CCC1 | 5 | 1 |
| C/C=C/c1ccc2c(c1)O[C@H](CN(C)C(=O)c1ccncc1)[C@@H](C)CN([C@@H](C)CO)S2(=O)=O | -1 | 4 |
| Cc1ccc(S(=O)(=O)Nc2ccc3c(c2)CC(=O)N([C@H](C)CO)C[C@@H](C)[C@@H](CN(C)S(=O)(=O)c2ccc(C)cc2)O3)cc1 | -21 | -19 |
| CC(C)NC(=O)N(C)C[C@@H]1Oc2ccc(NS(=O)(=O)c3ccc(Cl)cc3)cc2CC(=O)N([C@H](C)CO)C[C@H]1C | -1 | -5 |
| CC(C)NC(=O)Nc1ccc2c(c1)C(=O)N([C@H](C)CO)C[C@@H](C)[C@@H](CN(C)C(=O)CCCN(C)C)OCCCC[C@@H](C)O2 | 14 | 11 |
| COc1cccc(NC(=O)N[C@@H]2CC[C@H](CC(=O)N3CCOCC3)O[C@H]2CO)c1 | 4 | -6 |
| Cc1ccc(-c2ccc3c(c2)O[C@@H](CN(C)C(=O)NC(C)C)[C@@H](C)CN([C@@H](C)CO)S3(=O)=O)cc1 | -31 | -28 |
| Cc1noc(C)c1NC(=O)Nc1ccc2c(c1)C(=O)N([C@H](C)CO)C[C@@H](C)[C@@H](CN(C)Cc1ccc(C(F)(F)F)cc1)OCCCC[C@@H](C)O2 | ? | / |
| COc1ccc2c3c(n(C)c2c1)[C@H](CO)N(Cc1cccnc1)CC31CN(Cc2cccnc2)C1 | 10 | 1 |
| C[C@@H]1CN([C@H](C)CO)S(=O)(=O)c2ccc(Br)cc2O[C@@H]1CN(C)CC1CC1 | 1 | 6 |
| CCCNC(=O)C[C@H]1CC[C@@H]2[C@H](COC[C@@H](O)CN2Cc2ccc(Cl)c(Cl)c2)O1 | -14 | -10 |
| C[C@@H]1CN([C@@H](C)CO)S(=O)(=O)c2ccc(-c3ccccc3)cc2O[C@@H]1CN(C)Cc1ccncc1 | -27 | -28 |
| O=C(Cc1ccccn1)N1CCCCN2[C@H](CO)[C@@H](c3ccc(-c4ccc(F)cc4)cc3)[C@@H]2C1 | 9 | -3 |
| O=C(Cc1ccncc1)N1CCCCN2[C@H](C1)[C@@H](c1ccc(C#CC3(O)CCCC3)cc1)[C@@H]2CO | 38 | 22 |
| C[C@@H]1CN([C@@H](C)CO)C(=O)c2cc(NC(=O)C3CCCCC3)ccc2O[C@@H](C)CCCCO[C@H]1CN(C)S(=O)(=O)c1cccs1 | -21 | -17 |
| C[C@@H]1CN([C@H](C)CO)C(=O)c2cc(NC(=O)CCC(F)(F)F)ccc2O[C@@H](C)CCCCO[C@@H]1CN(C)S(=O)(=O)c1cn(C)cn1 | 8 | 3 |
| Cc1cccc(S(=O)(=O)N2C[C@H]3[C@@H](c4ccccc42)[C@@H](CO)N3Cc2ccccn2)c1 | 3 | 7 |
| C[C@@H]1CN([C@@H](C)CO)S(=O)(=O)c2ccc(-c3cccc(C#N)c3)cc2O[C@@H]1CN(C)C(=O)c1ccccc1 | ? | / |
| C[C@@H]1CN([C@@H](C)CO)C(=O)c2cc(C#C[C@@H](C)O)cnc2O[C@@H]1CN(C)C(=O)CN1CCOCC1 | 2 | 1 |
| C[C@H]1CN([C@@H](C)CO)C(=O)CCCn2nncc2CO[C@@H]1CN(C)S(=O)(=O)c1ccccc1F | -3 | -3 |
| N#C[C@H]1[C@@H](c2ccccc2-c2ccccc2F)[C@@H](CO)N1C(=O)C1CCC1 | -2 | 6 |
| C[C@@H]1CN([C@@H](C)CO)C(=O)c2cc(-c3ccc(F)cc3)cnc2O[C@H]1CN(C)C(=O)c1ccccc1F | 17 | 8 |
| CCCC#Cc1ccc2c(c1)O[C@H](CN(C)C(=O)C1CC1)[C@@H](C)CN([C@H](C)CO)S2(=O)=O | -15 | -15 |
| Cc1noc(C)c1S(=O)(=O)N(C)C[C@@H]1OCCCC[C@H](C)Oc2ccc(NC(=O)Nc3ccc(C(F)(F)F)cc3)cc2C(=O)N([C@H](C)CO)C[C@@H]1C | -10 | -1 |
| C[C@H](CO)N1C[C@H](C)[C@@H](CN(C)C(=O)Cc2ccncc2)Oc2ncc(C#CCN(C)C)cc2C1=O | 5 | 0 |
| C[C@H](CO)N1C[C@H](C)[C@@H](CN(C)C(=O)CN(C)C)Oc2ncc(C#Cc3ccncc3)cc2C1=O | 22 | 11 |
| O=C(O)[C@H]1[C@H](CO)[C@H]2Cn3c(ccc(-c4ccccc4)c3=O)[C@@H]1N2CC1CCCCC1 | 10 | 2 |
| C[C@@H]1CN([C@H](C)CO)C(=O)c2cc(NS(=O)(=O)c3cn(C)cn3)ccc2O[C@@H](C)CCCCO[C@@H]1CN(C)CC1CCCCC1 | 30 | 17 |
| COc1ccc(NC(=O)N(C)C[C@@H]2Oc3ccc(NC(=O)CCN4CCOCC4)cc3CC(=O)N([C@H](C)CO)C[C@@H]2C)cc1 | 3 | -3 |
| C[C@@H]1CCCCO[C@@H](CN(C)Cc2ccc(C(=O)O)cc2)[C@@H](C)CN([C@H](C)CO)C(=O)c2cc(NC(=O)c3ccccc3)ccc2O1 | 8 | 1 |
| C[C@H](NC(=O)C[C@@H]1C=C[C@@H](NC(=O)C2CCC2)[C@@H](CO)O1)c1ccccc1 | 4 | 5 |
| COc1ccc2c3c([nH]c2c1)[C@H](CO)N(C(=O)Nc1ccc(F)cc1)CC31CCN(C(=O)c2ccccn2)CC1 | 5 | -3 |
| C[C@@H]1CN([C@H](C)CO)C(=O)c2cc(NC(=O)NC3CCCCC3)ccc2O[C@H]1CN(C)C(=O)Nc1cccc2ccccc12 | 25 | 21 |
| C[C@@H]1CN([C@@H](C)CO)C(=O)c2cc(NS(=O)(=O)c3cccs3)ccc2O[C@@H](C)CCCCO[C@@H]1CN(C)S(=O)(=O)c1cn(C)cn1 | 21 | 9 |
| COc1ccc2c3c(n(C)c2c1)[C@H](CO)N(C(=O)Nc1ccc(F)cc1)CC31CCN(C(=O)Nc2c(C)noc2C)CC1 | 14 | 3 |
| CCCNC(=O)[C@H]1[C@H](CO)[C@H]2Cn3c(cccc3=O)[C@@H]1N2Cc1cc(F)ccc1F | 5 | 1 |
| CCS(=O)(=O)N1CC(=O)N2[C@@H](CO)[C@H](c3ccc(C#CC4CCCCC4)cc3)[C@@H]2C1 | -4 | -3 |
| CNC(=O)C[C@H]1CC[C@H]2[C@H](COc3ccc(NC(=O)Nc4cccc(Cl)c4)cc3C(=O)N2C)O1 | 3 | 2 |
| C[C@@H]1CN([C@H](C)CO)C(=O)CCCn2cc(nn2)CO[C@@H]1CN(C)Cc1ccc2c(c1)OCO2 | 3 | 3 |
| Cc1ccc(S(=O)(=O)N[C@H]2C=C[C@@H](CC(=O)N3CCC(Cc4ccccc4)CC3)O[C@H]2CO)cc1 | ? | / |
| COc1ccc(S(=O)(=O)N(C)C[C@@H]2Oc3ncc(C#Cc4ccc(OC)c(OC)c4)cc3C(=O)N([C@H](C)CO)C[C@@H]2C)cc1 | ? | / |
| C[C@H](CO)N1C[C@H](C)[C@H](CN(C)Cc2ccccc2)Oc2cc(C#CCN(C)C)ccc2S1(=O)=O | -17 | -10 |
| C[C@@H]1CN([C@H](C)CO)C(=O)c2cc(C#CCN(C)C)cnc2O[C@@H]1CN(C)Cc1ccccc1 | 13 | 1 |
| CCNC(=O)[C@@H]1[C@@H](CO)[C@@H]2Cn3c(ccc(-c4ccc(F)cc4)c3=O)[C@@H]2N1C(=O)Cc1cccnc1 | 0 | 7 |
| COc1ccc(S(=O)(=O)Nc2ccc3c(c2)C(=O)N([C@H](C)CO)C[C@H](C)[C@H](CN(C)C(=O)Nc2ccc4c(c2)OCO4)OCCCC[C@H](C)O3)cc1 | -7 | -6 |
| CCCC#Cc1ccc(CC[C@H]2O[C@H]3CC[C@@H](CO)O[C@H]3C[C@H]2n2cc(C(C)(C)O)nn2)cc1 | -30 | -24 |
| Cc1ccc(S(=O)(=O)N(C)C[C@@H]2Oc3ncc(Br)cc3C(=O)N([C@H](C)CO)C[C@H]2C)cc1 | 3&-4 | 5&-9 |
| O=C(c1ccncc1)N1C[C@@H]2[C@H](c3ccccc31)[C@H](CO)N2C(=O)Nc1ccccc1Cl | 4 | -1 |
| Cc1ccc(S(=O)(=O)N(C)C[C@@H]2Oc3ccc(NC(=O)Nc4ccc5c(c4)OCO5)cc3C(=O)N([C@H](C)CO)C[C@@H]2C)cc1 | 3 | 3 |
| CC(C)C#Cc1ccc2c(c1)O[C@H](CN(C)C(=O)C1CC1)[C@@H](C)CN([C@H](C)CO)S2(=O)=O | -4 | -15 |
| COc1ccccc1S(=O)(=O)N1[C@@H]2CNC[C@H]1C2c1ccc(/C=C/c2ccccc2)cc1 (stereo not given in full) | 0&5 | 5&8 |

An excerpt; count on the stated rates, not on these rows.
